Mtb betalactam: beta-lactam sensitization of Mtb H37Rv; actives 0.27% (n = 330,000); M. tuberculosis H37Rv growth with meropenem, percent inhibition; hits of this screen are not shown here; AID 434955; inhibition, % at 25 µM;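 active = about 74% or more and at least 40 points above the plate without the antibiotic, then above 30% in a dose series; inconclusive = first-round hits that could not be retested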;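 also: growth measured after seven days incubation then overnight dye step; 0% = bacteria only wells and 100% = bacteria with antibiotic; twin plates without the antibiotic show which effects depend on it; some results filed as inactive read as strong as hits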
* marks the source's active call; other numbers are inactive results; ? = inconclusive.

SMILES	Mtb betalactam
CN(Cc1ccc(Cl)cc1)C(=O)CNC(=O)C12CC3CC(CC(C3)C1)C2	0.0
COC(=O)[C@]12C(=O)NC[C@H](CN1c1ccc(C(F)(F)F)cc1)N2C	16.9
O=C1C=C(c2ccnc3cc(Cl)ccc23)C[C@@H](c2ccc3c(c2)OCO3)C1	52.4
O=C(Nc1ccc2nc(N3CCOCC3)sc2c1)c1ccc(F)cc1	-8.6
CN(CCN(C)C(=O)c1[nH]cnc1C(=O)Nc1ccccc1)C(=O)c1[nH]cnc1C(=O)Nc1ccccc1	3.0
O=S(=O)(c1ccc2c(c1)OCCO2)N1CCCN(S(=O)(=O)c2c(F)cccc2F)CC1	-8.3
Cc1c(N)cccc1N	-9.0
CCCN(C(=O)CSc1nc(C2CC2)n(-c2ccccc2)n1)C1CCS(=O)(=O)C1 (centres undefined)	-3.3
Cc1cccc(NC(=O)c2ccco2)c1C	-1.9
CCOC(=O)[C@H]1[C@H]2COc3ccccc3[C@@H]2N2C(=O)c3cc(F)ccc3NC(=O)[C@@]12C	-3.9
CNc1c(NS(=O)(=O)c2cc(OC)ccc2OC)c(=O)oc2ccccc12	-0.7
COc1ccc(S(=O)(=O)N2CCN(c3ncccn3)CC2)cc1	-13.2
Cc1cc(C)c([N+](=O)[O-])cc1NC(=O)CCS(=O)(=O)c1ccccc1	-5.7
Fc1ccc2cc(-c3ccccc3F)ncc2c1	-7.6
CC(C)N(C(=O)CSc1ccc(S(=O)(=O)N2CCCCC2)cn1)C(C)C	-1.0
CC(C)Oc1ccc(S(=O)(=O)N2CCCCC2)cc1NC(=O)C1CCCC1	8.7
O=C(CN1C(=O)/C(=C2/SC(=S)N(CCS(=O)(=O)O)C2=O)c2ccccc21)Nc1cccc(Br)c1	9.2
COc1cccc(Nc2nc(Nc3ccc(Cl)c(C(=O)O)c3)nc(C)c2[N+](=O)[O-])c1	-2.7
CCN(C[C@H]1N[C@@](Cc2ccccc2)(C(=O)OC)[C@H]2C(=O)N(Cc3ccccc3)C(=O)[C@@H]12)C(C)=O	5.3
CCOc1ccc(NC(=O)CN(C)C(=O)c2ccc(COc3ccccc3)cc2)cc1OCC	-0.3
Cc1ccccc1[C@@H](NC(=O)OC(C)(C)C)C(=O)OC(C)(C)C	0.0
COc1ccccc1OCCNC(=O)C1CC(=O)N(Cc2ccccc2)C1 (centres undefined)	-1.3
COc1cccc(CN(C)C(=O)c2ccc(OCC(=O)N3CCOCC3)c(OC)c2)c1	-1.3
COc1cccc(-n2cnnc2SCC(=O)NC2CC2)c1	-7.6
C[C@H](NC(=O)c1nc[nH]c1C(=O)N(C)Cc1ccccc1)c1ccccc1	-1.3
C[C@]12c3[nH]c4ccccc4c3CCN1C(=O)C(CC(=O)NCC13CC4CC(CC(C4)C1)C3)C[C@@H]2C(=O)N1CCCCC1 (some centres undefined)	24.9
CC(NC(=O)CN1C(=O)NC2(CCCCC2C)C1=O)c1ccccc1 (centres undefined)	-6.0
COC(=O)CCCn1nc(NC(=O)COc2ccc(F)cc2)cc1C	3.6
COc1cc(OC)cc(-c2c(-c3cccs3)c3cc(-c4ccc(C(N)=O)cc4)ccc3n2C)c1	-0.8
CCCCc1nnc(NC(=O)CCS(=O)(=O)c2ccc(Cl)cc2)s1	67.0
CC(C)=CCC[C@](C)(O[C@@H]1O[C@H](CO[C@@H]2OC[C@@H](O)[C@H](O)[C@H]2O)[C@@H](O)[C@H](O)[C@H]1O)C1CC[C@]2(C)C1[C@H](O)CC1[C@@]3(C)CC[C@H](O[C@@H]4O[C@H](CO)[C@@H](O)[C@H](O)[C@H]4O)C(C)(C)C3CC[C@]12C (some centres undefined)	-2.2
COc1ccc([C@@H]2CC=C(C(=O)O)[C@H](c3ccc(F)cc3)N2S(=O)(=O)c2ccc(Cl)cc2)cc1	-1.0
Clc1ccc(OCCOCCNCc2ccccc2)cc1Cl	9.9
Cc1ccc(C(=O)Nc2nc(-c3ccccn3)cs2)s1	90.0
O=C(CN1C(=O)NC2(CCc3ccccc32)C1=O)NCC(=O)Nc1ccc(F)cc1 (centres undefined)	-1.0
Cn1nnnc1SCC(=O)N1N=C(c2cccs2)CC1c1cccs1 (centres undefined)	-5.2
O=C(Nc1cccc(S(=O)(=O)N2CCCCC2)c1)c1cc(=O)[nH]c2ccccc12	-2.3
CCN(CC(=O)Nc1ccccc1C(F)(F)F)C(=O)c1ccc2c(=O)n3c(nc2c1)CCC3	-3.6
COc1cc(OC)cc(C(=O)N[C@H](C(=O)NC2=NCCS2)C(C)C)c1	-1.1
CN(C)c1cccc(C(=O)NNC(=O)/C=C/c2cccs2)c1	5.6
O=C(NCc1ccccc1)c1ccc(NS(=O)(=O)c2cccs2)cc1	-3.2
O=C1CN(C(=O)COC(=O)c2cccc(Br)c2)c2ccccc2N1	0.1
Cc1cccc(Nc2nc(-c3ccc(O)cc3O)cs2)n1	4.7
CCOc1ccc(NC(=O)COC(=O)CC2CCCCC2)cc1	-8.7
O=C(O)c1cc(S(=O)(=O)Nc2ccc3cn[nH]c3c2)ccc1O	-3.7

Part of the list above in order of count of non-hydrogen atoms, rising.
SMILES	Mtb betalactam
Cc1ccc(C(=O)Nc2nc(-c3ccccn3)cs2)s1	90.0
Clc1ccc(OCCOCCNCc2ccccc2)cc1Cl	9.9
O=C(O)c1cc(S(=O)(=O)Nc2ccc3cn[nH]c3c2)ccc1O	-3.7
O=C(NCc1ccccc1)c1ccc(NS(=O)(=O)c2cccs2)cc1	-3.2
COc1ccc([C@@H]2CC=C(C(=O)O)[C@H](c3ccc(F)cc3)N2S(=O)(=O)c2ccc(Cl)cc2)cc1	-1.0
CC(C)=CCC[C@](C)(O[C@@H]1O[C@H](CO[C@@H]2OC[C@@H](O)[C@H](O)[C@H]2O)[C@@H](O)[C@H](O)[C@H]1O)C1CC[C@]2(C)C1[C@H](O)CC1[C@@]3(C)CC[C@H](O[C@@H]4O[C@H](CO)[C@@H](O)[C@H](O)[C@H]4O)C(C)(C)C3CC[C@]12C (some centres undefined)	-2.2

(cont.)
SMILES	Mtb betalactam
O=C(OCCc1cc2ccccc2c(=O)o1)c1ccc(F)cc1	15.9
CCN1C(=O)[C@@H]2[C@@H](c3ccc(-c4ccc(C(C)=O)cc4)c(OC)c3)N3CCC[C@@]3(C(=O)OC)[C@@H]2C1=O	-3.6
COc1ccc(Cl)cc1C(=O)NNC(=O)CSc1nncn1C	-3.2
O=C(OC1CCOC1=O)c1ccccc1C(=O)c1ccc(Cl)c([N+](=O)[O-])c1 (centres undefined)	0.0
CCOC(=O)c1ccc(S(=O)(=O)n2c(=O)oc3ccccc32)cc1	-4.5
Cc1ccc(S(=O)(=O)c2nc(-c3ccc(F)cc3)oc2N2CCOCC2)cc1	-7.1
COc1ccc(S(=O)(=O)N2CCc3ccccc32)cc1C(=O)N1CCN(C=O)CC1	3.5
CCCCn1c(N)c(N(CCC(C)C)C(=O)c2ccc3c(c2)OCO3)c(=O)[nH]c1=O	4.4
O=C(O)/C(=C\c1cccc(O)c1)c1ccc(S(=O)(=O)N2CCCC2)s1	-1.4
CCCCn1c(N)c(N(CCC(C)C)C(=O)c2ccc3ccccc3c2)c(=O)[nH]c1=O	-3.5
CC(C)(C)OC(=O)N1CCCC(C(=O)Nc2cccc(C(=O)N3CCCC3)c2)C1 (centres undefined)	-0.4
O=C(/C=C/c1cccc(F)c1)Nc1cc(S(=O)(=O)N2CCOCC2)ccc1Cl	-7.7
Cc1[nH]c(SCC(=O)Nc2cc(C(N)=O)cc(C(N)=O)c2)nc1Cc1ccccc1	-1.9
C[C@H](CO)N1C[C@H](C)[C@@H](CN(C)S(=O)(=O)c2ccc(F)cc2)Oc2ccc(NC(=O)NC3CCCCC3)cc2C1=O	-2.6
O=C(COc1ccc(F)cc1Br)NCC1COc2ccccc2O1 (centres undefined)	-0.8
COc1cccc(/C=C/C(=O)c2ccc3c(c2)OCO3)c1OC	92.8
Cc1cccc(CNC(=O)c2ccc3nc(Cc4ccccc4F)oc3c2)n1	?
O=C(NC1CCCC1)C(c1cccnc1)N(Cc1ccccc1)C(=O)c1csnn1 (centres undefined)	-10.0
O=C(Nc1cccc(S(=O)(=O)N2CCCCC2)c1)C1CCCC1	-2.3
O=C(COC(=O)c1ccc(OC(F)F)cc1)NCc1cccs1	-6.7
O=C(Cn1[nH]c(=O)c2ccccc2c1=O)N1CCN(S(=O)(=O)c2ccc(Cl)cc2)CC1	-4.4
Cc1nc(SCc2nc3ccc(C(F)(F)F)cc3[nH]2)c2oc3ccccc3c2n1	23.8
C[C@H]1CN=C(N(C)C)N1CC1CCCC1	-3.7
N#Cc1cccc(NC(=O)COC(=O)Cn2nc(-c3ccccc3)oc2=O)c1	-4.4
CCN(Cc1nc2ccccc2c(=O)[nH]1)C(=O)c1cc(C2CC2)nn1-c1ccccc1	-5.2
CC(C)[C@H](NS(=O)(=O)c1ccccc1)C(=O)OCC(=O)Nc1cccc(S(N)(=O)=O)c1	3.1
CN(CC(=O)NCC(=O)Nc1ccc(F)cc1)C1CCS(=O)(=O)C1 (centres undefined)	-4.0
Cc1cccc(CNc2ncnc3ccc(-c4cccnc4)cc23)c1	5.1
CCCn1c(N)c(C(=O)CSc2nnc(-c3ccoc3C)n2C)c(=O)n(C)c1=O	-4.9
O=C(Nc1ccccc1Cl)c1ccc2nccnc2c1	-1.2

Fetched by structure from the list above:
SMILES	Mtb betalactam
O=C(NC1CCCC1)C(c1cccnc1)N(Cc1ccccc1)C(=O)c1csnn1 (centres undefined)	-10.0
C[C@H]1CN=C(N(C)C)N1CC1CCCC1	-3.7

Remaining list, next part
SMILES	Mtb betalactam
CC(C(=O)N1CCCCC1)N1CCN(S(=O)(=O)c2ccc(Cl)cc2)CC1 (centres undefined)	-2.6
CC(C)C[C@@H]1CN=C(N)N1C[C@@H]1CCCN1C[C@H](C)N1C[C@@H](Cc2ccccc2)N(CCc2ccc(Cl)c(Cl)c2)C1=N	99.6
CCN(c1ccccc1)S(=O)(=O)c1ccc2c(c1)OCCO2	-5.1
O=C(Nc1ccc(S(=O)(=O)N2CCCCC2)cc1)C1CCN(C(=O)c2ccco2)CC1	-5.1
O=C1Cc2cc(S(=O)(=O)N3CCNCC3)ccc2N1	-5.7
CCN1CCN(c2cc(=O)n3ccccc3n2)CC1	3.4
O=C(CN1C(=O)NC(c2ccccc2)(c2ccccc2)C1=O)N1CCN(c2ccc(F)cc2)CC1	-10.2
CCOc1ccc(C(=O)COC(=O)c2nc3nccc(C)n3n2)cc1	-3.4
S=C(NCCc1ccccc1)N1CCCC1	-6.8
CC(=O)c1ccc(NC(=O)C(C)Sc2nnc(C3CC3)n2C2CC2)cc1 (centres undefined)	3.8
CCCCN1C(=N)N([C@@H](C)CN2CCC[C@H]2CN2C(N)=NC[C@H]2CC(C)C)C[C@H]1[C@H](C)CC	0.5
CC1CCCC(C)N1C(=O)COC(=O)CCC(=O)c1ccc(F)cc1 (centres undefined)	5.2
CCN(CC(=O)NCc1cccs1)C(=O)Cc1ccc(Cl)c(Cl)c1	-9.7
O=C(CC1C[C@H](C(=O)N2CCCCC2)[C@@]2(CCc3ccccc3)c3[nH]c4ccccc4c3CCN2C1=O)NCc1cccc(C(F)(F)F)c1 (some centres undefined)	17.5
Cc1ccc(NC(=O)Cn2c(=O)cnc3ccccc32)cc1S(=O)(=O)N1CCCCC1	7.7
Cc1cc(NC(=O)C(C)Sc2nnc(NCc3ccco3)s2)no1 (centres undefined)	-9.3
Cc1c(Cl)cccc1NC(=O)CNC(=O)c1ccc2c(c1)OCCO2	-5.5
C[C@@H]1CN([C@H](C)CO)C(=O)c2cc(NC(=O)C3CCCCC3)ccc2O[C@@H]1CN(C)Cc1ccc(C(F)(F)F)cc1	9.2
C[C@H]1COC(=O)[C@H](Cc2ccc(F)cc2)C/C=C\C[C@@H](CC(=O)NCCO)C(=O)N1	-2.4
CC(=O)c1ccccc1C(=O)N1CCCC(CCC(=O)N2CCN(c3ccccn3)CC2)C1 (centres undefined)	?
Cc1ccc(NC(=O)CSCC(=O)NC2=NCCS2)cc1	1.7
O=C(COc1cccc(C(F)(F)F)c1)NCC(c1cccs1)N1CCOCC1 (centres undefined)	-3.4
CC(=O)Oc1cccc(/C=N\NC(=O)C(=O)N/N=C/c2cccc(OC(C)=O)c2)c1	1.5
COc1ccccc1/C=C/C(=O)OC(C)CN1CCCCC1 (centres undefined)	1.7
CCN(CC)S(=O)(=O)c1ccc(N2CC(C(=O)NCCC3=CCCCC3)CC2=O)cc1 (centres undefined)	-2.1
COC(=O)[C@]1(C)N[C@H](CN(C)C(=O)Nc2ccccc2)[C@@H]2C(=O)N(C)C(=O)[C@@H]21	3.8
COc1ccccc1CNC(=O)COC(=O)c1ccc(C)c(S(=O)(=O)N2CCOCC2)c1	-4.0
COc1ccc2ccc(OCC(=O)N3c4ccccc4NC(=O)CC3C)cc2c1 (centres undefined)	-0.1
COCCn1c(SCC(=O)NC2CC2)nc2ccccc21	-9.1
CC(=O)c1ccc(NC(=O)CN2C(=O)NC(C)(c3ccc4c(c3)OCCO4)C2=O)cc1 (centres undefined)	2.3
Cc1ccc(OCC(=O)Nc2ccc(NC(=O)c3cccs3)cc2)c(C)c1	-8.1
CCN(CC)S(=O)(=O)c1ccc(Cl)c(NC(=O)COC(=O)c2nc3nc(C)cc(C)n3n2)c1	-9.1
CCOc1ccccc1NC(=O)COC(=O)c1cnc(C)cn1	3.6
C=CCN(C(=O)c1csnn1)C(C(=O)NCc1ccc(F)cc1)c1cccs1 (centres undefined)	-7.3
O=C(CCNC(=O)c1ccccc1)Nc1ccc(S(=O)(=O)Nc2ncccn2)cc1	-11.9
CC(C)n1nnnc1SCC(=O)c1c(N)n(C2CC2)c(=O)[nH]c1=O	-8.5
CCC(=O)N1CCN(c2cc3c(cc2F)c(=O)c(C(=O)O)cn3CC)CC1	99.2
CN(C)N=Nc1nc[nH]c1C(N)=O	99.4
CN(C(=O)CSc1nnc2n1CCCCC2)C1(C#N)CCCCC1	-16.3
Oc1ccc2c3c1OC1c4[nH]c5ccccc5c4C[C@@]4(O)C(C2)N(CC2CC2)CC[C@]314 (some centres undefined)	2.7
CC(=O)c1cccc(NC(=O)COC(=O)CCC(=O)c2ccc(F)cc2)c1	-5.4
CC(C)NC(=O)N(C)C[C@H]1Oc2c(NS(=O)(=O)c3cn(C)cn3)cccc2C(=O)N([C@H](C)CO)C[C@@H]1C	-3.6

Assay outcomes (PubChem BioAssay)

A portion of the library (hit frequency here may not be typical).
